From PubChem
FGF22 binding – binders of human FGF22 protein, primary screen, FGF22 synaptogenesis inhibitor project, biophysical, thermal shift, single point | AID 651658, 2012 | recombinant FGF22 thermal shift, SYPRO orange fluorescence; percent of sucrose octasulfate shift, DMSO zero | Fibroblast growth factor 22 (Homo sapiens), Q9HCT0 | calls only at 9.99 µM | 340,000 compounds, 1.5% hits;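 active = melting point raised past a set limit in the mean and every replicate; three in four hits are not shown here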
Target sequence (Q9HCT0 whole entry, looked up): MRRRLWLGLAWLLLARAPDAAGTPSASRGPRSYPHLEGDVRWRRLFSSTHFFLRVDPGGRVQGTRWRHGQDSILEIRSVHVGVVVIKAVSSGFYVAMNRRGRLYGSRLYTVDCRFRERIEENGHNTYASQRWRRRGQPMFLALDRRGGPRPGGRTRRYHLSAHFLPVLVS
MLL AF4-AF9 inh – inhibitors of AF4 peptide binding to AF9, primary screen, biochemical, AlphaScreen, biotin-AF4 peptide, FLAG-AF9, single point. Protein AF-9 (Homo sapiens), P42568. inhibition, % at 10 µM. 350,000 compounds, 0.47% hits. AID 651704, 2012;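 active = every replicate reaching a set inhibition limit, whatever the replicate mean, cut at about 25% in these data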;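 note: 0% = plate neutral control median and 100% = total signal loss; the record names both 10 and 1 µM as test concentration; the first replicate is given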
Target sequence (P42568 whole entry, looked up): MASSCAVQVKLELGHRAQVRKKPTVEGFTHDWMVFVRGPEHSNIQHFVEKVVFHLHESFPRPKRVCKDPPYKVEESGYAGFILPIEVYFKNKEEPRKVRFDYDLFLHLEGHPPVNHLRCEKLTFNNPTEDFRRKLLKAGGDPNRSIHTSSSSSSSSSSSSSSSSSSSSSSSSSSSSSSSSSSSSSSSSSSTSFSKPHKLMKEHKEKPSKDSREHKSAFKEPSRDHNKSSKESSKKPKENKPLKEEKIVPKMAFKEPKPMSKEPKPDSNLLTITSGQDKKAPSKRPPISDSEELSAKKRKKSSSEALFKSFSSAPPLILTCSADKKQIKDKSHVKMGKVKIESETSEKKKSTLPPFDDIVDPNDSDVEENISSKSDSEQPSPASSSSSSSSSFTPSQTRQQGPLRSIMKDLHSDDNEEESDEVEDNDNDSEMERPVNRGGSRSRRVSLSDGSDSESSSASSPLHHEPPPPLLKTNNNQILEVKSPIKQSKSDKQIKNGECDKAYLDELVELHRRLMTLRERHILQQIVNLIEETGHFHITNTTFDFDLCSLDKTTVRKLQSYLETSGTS
Numbers without * were called inactive; i = inactive. These rows are one share of the data; rates above refer to the full screens.

SMILES	FGF22 binding	MLL AF4-AF9 inh
CCCC#Cc1ccc2c(c1)O[C@H](CN(C)C(=O)COC)[C@H](C)CN([C@H](C)CO)S2(=O)=O	i	-0.2
CC=Cc1ccc2n(c1=O)C[C@@H]1[C@@H](CO)[C@H](C(=O)N3CCc4ccccc4C3)[C@H]2N1Cc1ccccc1 (mixture of isomers)	i	1.7
O=C(C[C@@H]1C[C@H]2c3cc(NC(=O)C4CCC4)ccc3O[C@H]2[C@H](CO)O1)NCc1cccc(F)c1	i	1.2
COC(=O)[C@]12C[C@H](CC(=O)N3CCOCC3)C(=O)N(CCc3ccc(OC)c(OC)c3)C1=C[C@H](C(C)(C)C)O[C@@H]2C	i	0.5
CN1c2ccc(-c3cccc(C#N)c3)cc2[C@@H]2[C@@H](CCN2C(=O)c2ccc(F)cc2)[C@@H]1CO	i	-2.2
COc1ccc(S(=O)(=O)Nc2ccc3c(c2)C(=O)N([C@@H](C)CO)C[C@@H](C)[C@H](CN(C)C(=O)c2ccccc2)OCCCC[C@H](C)O3)cc1	i	-2.7
C[C@@H]1CCCCO[C@@H](CN(C)Cc2ccc(C(=O)O)cc2)[C@H](C)CN([C@H](C)CO)C(=O)c2cc(NC(=O)NC3CCCCC3)ccc2O1	i	-0.7
CO[C@@H]1CN(C)C(=O)c2cc(NS(=O)(=O)c3cccc(Cl)c3)ccc2OC[C@@H](C)N(C(=O)Cc2cccnc2)C[C@H]1C	i	0.1
COc1ccc(NC(=O)N(C)C[C@@H]2Oc3ccc(NC(=O)c4ccncc4)cc3CC(=O)N([C@@H](C)CO)C[C@@H]2C)cc1	i	-2.0
COc1ccc(S(=O)(=O)N[C@@H]2CC[C@@H](CCn3cc(-c4cccc(F)c4)nn3)O[C@H]2CO)cc1	i	-0.2
C[C@H]1CN([C@@H](C)CO)C(=O)Cc2cc(NC(=O)CCN3CCOCC3)ccc2O[C@H]1CN(C)S(=O)(=O)c1ccc(F)cc1	i	0.6
COc1ccc2c3c([nH]c2c1)[C@@H](CO)N(C(=O)Nc1ccc(F)cc1)CC31CCN(C(=O)Cc2ccccc2)CC1	i	-0.9
C[C@@H]1CN([C@H](C)CO)C(=O)Cc2cc(NC(=O)CCC(F)(F)F)ccc2O[C@H]1CN(C)C(=O)Nc1ccc2c(c1)OCO2	i	-18
C[C@@H]1CN([C@@H](C)CO)C(=O)c2cc(/C=C/c3ccccc3)cnc2O[C@H]1CN(C)C(=O)C1CCC1	i	5.3
COc1ccc(CN(C)C[C@H]2OCCCC[C@H](C)Oc3ccc(NC(=O)Nc4ccc(C(F)(F)F)cc4)cc3C(=O)N([C@H](C)CO)C[C@@H]2C)cc1	i	4.1
N#C[C@@H]1[C@@H](c2ccccc2-c2cccc(F)c2)[C@@H](CO)N1C(=O)C1CCC1	i	-0.5
COc1ccc2c3c(n(C)c2c1)[C@@H](CO)N(C(=O)C1CC1)CC31CN(C)C1	i	0.6
C[C@@H]1CN([C@@H](C)CO)C(=O)c2cc(C#CCc3ccccc3)cnc2O[C@H]1CN(C)Cc1cccnc1	i	1.2
Cc1ccccc1S(=O)(=O)N1CC[C@@H]2[C@H]1c1cc(-c3ccc(F)cc3)ccc1N(C)[C@H]2CO	i	2.1
COc1cccc(NC(=O)Nc2ccc3c(c2)C(=O)N(C)C[C@@H](OC)[C@@H](C)CN(CC2CC2)[C@H](C)CO3)c1	i	-1.2
N#Cc1ccc(-c2ccc3c(c2)[C@@H]2[C@@H](CCN2C(=O)C2CC2)[C@@H](CO)N3)cc1	i	-7.7
CC=Cc1ccc2n(c1=O)C[C@H]1[C@H](CO)[C@@H](C(=O)NCC(F)(F)F)N(CCc3ccccc3)[C@@H]21 (mixture of isomers)	i	3.5
CCCC(=O)Nc1ccc2c(c1)OC[C@@H](C)N(Cc1cccc(F)c1)C[C@H](C)[C@@H](OC)CN(C)C2=O	i	3.7
O=C(Cc1ccncc1)NCC[C@@H]1CC[C@@H](NC(=O)C2CCCCC2)[C@H](CO)O1	i	-0.4
C[C@H]1CN([C@@H](C)CO)C(=O)c2cccc(NC(=O)C3CCCCC3)c2O[C@@H]1CN(C)Cc1ccncc1	i	-0.8

New compounds follow
SMILES	FGF22 binding	MLL AF4-AF9 inh
COc1ccc(C(=O)Nc2ccc3c(c2)OC[C@@H](C)N(C)C[C@H](C)[C@@H](OC)CN(C)C3=O)cc1	i	0.7
C[C@@H]1CN([C@H](C)CO)S(=O)(=O)c2ccc(-c3cncnc3)cc2O[C@@H]1CN(C)C	i	-4.5
N#C[C@H]1N[C@@H](CO)[C@@H]1c1ccc(C#CC2CCCCC2)cc1	i	1.9
O=C(NCC[C@H]1CC[C@H](NC(=O)C2CCC2)[C@H](CO)O1)Nc1ccc(Cl)cc1	i	5.1
C[C@H]1CN([C@@H](C)CO)C(=O)Cc2cc(NC(=O)CCN3CCOCC3)ccc2O[C@@H]1CN(C)C	i	-2.0
OC[C@H]1Nc2ccc(-c3cccc(F)c3)cc2[C@@H]2[C@H]1CCN2Cc1ccc(F)cc1	i	-2.8
O=C(NCC[C@H]1CC[C@@H](NC(=O)C2CC2)[C@@H](CO)O1)c1ccc(F)cc1	i	-1.6
COc1ccc(NC(=O)N(C)C[C@H]2Oc3c(NC(=O)c4cnccn4)cccc3C(=O)N([C@H](C)CO)C[C@@H]2C)cc1	i	-6.6
C[C@@H]1CN([C@H](C)CO)C(=O)c2cccc(NC(=O)Nc3cccc4ccccc34)c2O[C@@H]1CN(C)S(=O)(=O)c1ccccc1	i	0.8
C[C@@H]1CN([C@H](C)CO)C(=O)c2cc(-c3cccc(C#N)c3)cnc2O[C@H]1CN(C)Cc1cccnc1	i	-2.6
CN(C)C(=O)[C@@H]1[C@@H](CO)[C@@H]2Cn3c(ccc(C4=CCCCC4)c3=O)[C@H]1N2CC1CC1	i	0.9
CCS(=O)(=O)N1CCC2(CC1)CN(C(=O)Cc1ccccn1)[C@H](CO)c1[nH]c3cc(OC)ccc3c12	i	4.6
Cc1noc(C)c1NC(=O)Nc1ccc2c(c1)C(=O)N([C@@H](C)CO)C[C@@H](C)[C@@H](CN(C)CC1CCCCC1)OCCCC[C@H](C)O2	i	-3.0
CNC[C@@H]1Oc2ccc(NC(=O)C3CCCCC3)cc2C(=O)N([C@H](C)CO)C[C@@H]1C	i	-2.2
C[C@@H]1CCCCO[C@@H](CN(C)C(=O)Nc2ccc(F)cc2)[C@@H](C)CN([C@H](C)CO)C(=O)c2cc(NC(=O)CCCN(C)C)ccc2O1	i	-1.9
COc1cccc(CN2CCC3(CC2)CN(C(=O)C2CC2)[C@H](CO)c2c3c3ccc(OC)cc3n2C)c1	i	7.7
COCC(=O)NC[C@@H]1[C@H](c2ccccc2)[C@H](CO)N1C(C)=O	i	-1.7
C[C@@H]1CN([C@H](C)CO)C(=O)c2cccc(NC(=O)c3ccncc3)c2O[C@@H]1CN(C)Cc1ccc(Oc2ccccc2)cc1	i	25*
CC(C)COC(=O)N(C)C[C@@H]1OCc2ccccc2-c2c(n(C)c3ccccc23)C(=O)N([C@H](C)CO)C[C@H]1C	i	4.6
C[C@@H]1CCCCO[C@@H](CN(C)C(=O)Nc2ccc(F)cc2)[C@H](C)CN([C@@H](C)CO)C(=O)c2cc(NC(=O)Nc3ccc(F)cc3)ccc2O1	i	1.1
CN(C)CC#Cc1ccc([C@@H]2[C@@H](CO)N3CCCCN(C(=O)C4CCCC4)C[C@@H]23)cc1	i	-4.7
CC(=O)NC[C@@H]1[C@H](c2ccc(-c3ccccc3F)cc2)[C@H](CO)N1C(C)=O	i	-0.8
COc1ccc(NC(=O)N(C)C[C@@H]2Oc3ccc(NS(=O)(=O)c4ccc(Cl)cc4)cc3C(=O)N([C@@H](C)CO)C[C@H]2C)cc1	i	-2.0
CO[C@@H]1CN(C)C(=O)c2cc(NC(=O)C3CC3)ccc2OC[C@H](C)N(Cc2ccc(F)cc2)C[C@@H]1C	i	1.2
Cc1ccc(S(=O)(=O)NCC2CCN(C(=O)C(=O)c3cccs3)CC2)cc1	i	1.7

Next part; the last five above are carried over.
SMILES	FGF22 binding	MLL AF4-AF9 inh
CN(C)CC#Cc1ccc([C@@H]2[C@@H](CO)N3CCCCN(C(=O)C4CCCC4)C[C@@H]23)cc1	i	-4.7
CC(=O)NC[C@@H]1[C@H](c2ccc(-c3ccccc3F)cc2)[C@H](CO)N1C(C)=O	i	-0.8
COc1ccc(NC(=O)N(C)C[C@@H]2Oc3ccc(NS(=O)(=O)c4ccc(Cl)cc4)cc3C(=O)N([C@@H](C)CO)C[C@H]2C)cc1	i	-2.0
CO[C@@H]1CN(C)C(=O)c2cc(NC(=O)C3CC3)ccc2OC[C@H](C)N(Cc2ccc(F)cc2)C[C@@H]1C	i	1.2
Cc1ccc(S(=O)(=O)NCC2CCN(C(=O)C(=O)c3cccs3)CC2)cc1	i	1.7
CCCC#Cc1cnc2c(c1)C(=O)N([C@@H](C)CO)C[C@H](C)[C@H](CN(C)C(=O)c1ccc3c(c1)OCO3)O2	i	-2.6
C[C@@H]1CN([C@@H](C)CO)S(=O)(=O)c2ccc(-c3cccnc3)cc2O[C@@H]1CN(C)C(=O)C1CCC1	i	2.6
C[C@@H]1CN([C@H](C)CO)C(=O)c2cccc(NC(=O)c3cnccn3)c2O[C@H]1CN(C)Cc1ccc(C(=O)O)cc1	i	-3.3
COc1ccccc1C#Cc1ccc([C@H]2[C@@H](CO)N3CCCCN(C(=O)C4CCCC4)C[C@@H]23)cc1	i	-2.9
O=C(NCC[C@@H]1CC[C@H](NS(=O)(=O)c2ccc(Cl)cc2)[C@H](CO)O1)c1ccccc1F	i	-1.1
C[C@@H]1CN([C@@H](C)CO)C(=O)Cc2cc(NC(=O)Cc3ccccc3)ccc2O[C@@H]1CN(C)C(=O)Nc1cccc2ccccc12	i	0.0
COc1ccccc1CNC(=O)C[C@@H]1C[C@@H]2c3cc(NC(=O)CN(C)C)ccc3O[C@@H]2[C@H](CO)O1	i	-0.8
C[C@H]1CCCCO[C@H](CN(C)C(=O)c2ccccc2)[C@@H](C)CN([C@@H](C)CO)C(=O)c2cc(NC(=O)Nc3ccc(F)cc3)ccc2O1	i	-6.5
C[C@H]1CN([C@@H](C)CO)C(=O)c2cc(C#Cc3cccc(F)c3)cnc2O[C@@H]1CN(C)CC1CCCC1	i	10
Cc1ccccc1S(=O)(=O)N1[C@@H]2CNC[C@H]1C2c1ccc(-c2cccnc2)cc1 (stereo not given in full)	i	-1.6
CCCC(=O)Nc1ccc2c(c1)C(=O)N(C)C[C@@H](OC)[C@@H](C)CN(C(=O)c1cnccn1)[C@@H](C)CO2	i	3.9
C[C@H]1CN([C@@H](C)CO)C(=O)Cc2cc(NC(=O)Nc3ccc4c(c3)OCO4)ccc2O[C@@H]1CN(C)Cc1ccc(C(=O)Nc2ccccc2N)cc1	i	0.4
Cc1noc(C)c1S(=O)(=O)Nc1ccc2c(c1)C(=O)N([C@@H](C)CO)C[C@@H](C)[C@H](CN(C)C(=O)Nc1ccc(C(F)(F)F)cc1)O2	i	-0.6
C[C@@H]1CN([C@H](C)CO)C(=O)c2cc(NC(=O)CCCN(C)C)ccc2O[C@@H]1CN(C)Cc1ccc(C(=O)O)cc1	i	-3.5
Cc1ccc(-c2ccc3c(c2)O[C@@H](CN(C)C(=O)Nc2ccccc2)[C@@H](C)CN([C@H](C)CO)S3(=O)=O)cc1	i	1.2
CN(C)CC(=O)Nc1ccc2c(c1)[C@H]1C[C@@H](CC(=O)N3CCCCC3)O[C@H](CO)[C@H]1O2	i	-2.2
C[C@H](CO)N1C[C@H](C)[C@@H](CN(C)Cc2ccc3c(c2)OCO3)Oc2ccc(N(C)C)cc2C1=O	i	-4.3
CC(=O)NC[C@@H]1[C@@H](c2ccc(C3=CCCC3)cc2)[C@H](CO)N1C(=O)NC(C)C	i	-0.9
CC(C)C#Cc1ccc2c(c1)O[C@H](CN(C)C(=O)c1cccnc1)[C@H](C)CN([C@@H](C)CO)S2(=O)=O	i	0.7
C/C=C/c1ccc2c(c1)O[C@H](CN(C)C(C)=O)[C@@H](C)CN([C@H](C)CO)S2(=O)=O	i	-3.4
CC(C)NC(=O)N[C@@H]1C=C[C@H](CC(=O)NCCCN(C)C)O[C@@H]1CO	i	-0.4
O=C(Cc1ccccc1)N1CC2(C1)[C@@H](c1ccccc1)[C@H](CO)N2C(=O)Cc1ccccc1	i	0.3
C[C@H](CO)N1C[C@H](C)[C@H](CN(C)Cc2ccc3c(c2)OCO3)Oc2ccc(NC(=O)Nc3ccccc3)cc2CC1=O	i	-2.3
CO[C@H]1CN(C)C(=O)c2ccc(NS(=O)(=O)c3ccc(C)cc3)cc2OC[C@H](C)NC[C@H]1C	i	-2.3
COc1ccc2c3c([nH]c2c1)[C@H](CO)N(C(=O)C1CCCCC1)CC31CN(S(C)(=O)=O)C1	i	-0.7
C[C@@H]1CN([C@H](C)CO)C(=O)c2cc(C#CCN(C)C)cnc2O[C@H]1CN(C)C(=O)Cc1cccnc1	i	-4.0

Entries from the list above that contain an NH in an aromatic ring, in the order listed:
SMILES	FGF22 binding	MLL AF4-AF9 inh
COc1ccc2c3c([nH]c2c1)[C@@H](CO)N(C(=O)Nc1ccc(F)cc1)CC31CCN(C(=O)Cc2ccccc2)CC1	i	-0.9
CCS(=O)(=O)N1CCC2(CC1)CN(C(=O)Cc1ccccn1)[C@H](CO)c1[nH]c3cc(OC)ccc3c12	i	4.6
COc1ccc2c3c([nH]c2c1)[C@H](CO)N(C(=O)C1CCCCC1)CC31CN(S(C)(=O)=O)C1	i	-0.7
